Cruzain inh Det: inhibitors of Trypanosoma cruzi cruzain with detergent; P25779; purified cruzain, Z-FR-AMC fluorescence, 0.01% Triton; Potency, µM, for inactives: max response, negative = inhibition, actives largely listed as inhibitors; hit rate 0.43% among 200,000; AID 1478; active = well fitted curve in the direction sought with a large enough effect; inconclusive = small, poorly fitted or top-dose-only effect, or another doubt; inactive = no such curve, though single readings can be large; an effect the other way counts as inactive or inconclusive;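 also: plate controls were neutral wells for no effect and buffer without enzyme for full effect; nearly all actives have a fitted effect of over 40% in size; top concentration of the series not given in the record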
Target sequence (P25779 123-467 limits assumed): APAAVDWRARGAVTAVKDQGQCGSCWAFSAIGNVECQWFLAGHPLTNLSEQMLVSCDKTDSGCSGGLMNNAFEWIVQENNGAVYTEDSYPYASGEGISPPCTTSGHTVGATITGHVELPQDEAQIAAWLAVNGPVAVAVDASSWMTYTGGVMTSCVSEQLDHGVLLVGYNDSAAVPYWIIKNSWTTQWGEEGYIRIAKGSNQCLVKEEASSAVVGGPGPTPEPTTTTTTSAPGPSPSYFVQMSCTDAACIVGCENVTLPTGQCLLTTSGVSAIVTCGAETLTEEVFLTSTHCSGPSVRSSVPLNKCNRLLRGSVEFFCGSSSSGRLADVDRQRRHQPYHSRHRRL
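Read-out: AMC fluorescence (360 nm excitation, 450 nm emission), four reads over 2 min, first-to-third difference used. Conditions: cruzain 1.5 nM, Z-FR-AMC 2 uM, pH 5.5 acetate, 5 mM DTT, 0.01% Triton X-100.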
Cruzain noTriton: blocks cruzain activity in detergent-free assay | P25779 | hit rate 2.3% among 200,000 | Potency, µM, for inactives: max response, negative = inhibition, most hits filed as inhibitors | purified cruzain, Z-FR-AMC fluorescence, no detergent; active = well fitted curve in the direction sought with a large enough effect; inconclusive = small, poorly fitted or top-dose-only effect, or another doubt; inactive = no such curve, though single readings can be large; an effect the other way counts as inactive or inconclusive;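 also: plate controls were enzyme without inhibitor for no effect and buffer without enzyme for full effect; nearly all actives have a fitted effect of over 40% in size; top concentration of the series not given in the record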
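Purified cruzain at 1.5 nM, pre-incubated 15 min with compound at room temperature in 100 mM sodium acetate pH 5.5, 5 mM DTT, 0.00005% Triton X-100. Reaction started with 2 uM Z-FR-AMC; AMC fluorescence increase over 60 s gives rate.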
RE007 growth inh: less growth of the S. pombe RE007 Vpr strain | S. pombe RE007 Vpr strain, BacTiter-Glo ATP luminescence, 24 h; control for the full effect not named in the record | Potency, µM (top dose mostly 92.2 µM), for inactives: at the top dose activity change, negative = less growth | hit rate 0.21% among 360,000 | AID 651644; active = well fitted falling curve with a large enough effect; inconclusive = small, poorly fitted or top-dose-only effect; inactive = no such curve, though single readings can be large or run the other way;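 also: % is scaled to controls: 0 for no effect and ±100 for the full control effect; nearly all actives have a fitted effect of over 50% in size; the assay follows cell death caused by Vpr and the record does not say whether a fall means rescue or toxicity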
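Fission yeast RE007 carrying one integrated HIV-1 vpr copy, seeded at OD 0.01 in PMG+AL medium with 23 nL pinned compound. Grown 24 h at 30 degrees; viability read by BacTiter-Glo luminescence after 5 min.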
NS1 function inh: blocks influenza NS1 protein function. S. cerevisiae slowed by influenza A NS1, growth recovery by OD600. AID 2326. Potency, µM (top dose mostly 46.1 µM), for inactives: top-dose activity, positive = more growth. hit rate 0.4% among 270,000; also: actives are rising curves; nearly all actives have a fitted effect of over 50% in size
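Growth recovery, yeast-based: influenza A NS1 expressed in S. cerevisiae causes slow growth, and suppressors are detected by OD600. The parent strain without NS1 is used as positive control.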
MARV entry inh: Marburg virus entry inhibition | Marburg virus pseudotyped entry inhibition, cell reporter; control for the full effect not named in the record; about a third of the inactives were read at about 46 µM | Potency, µM (highest dose often 37.8 µM), without a hit: at the highest dose activity change, negative = inhibition, usual class: inhibitors | hit rate 1.8% among 300,000; active = well fitted inhibition curve with a large enough effect; inconclusive = small, poorly fitted or top-dose-only effect, or effect the other way; inactive = flat fitted curve, though single readings scatter; tested in HEK293 cells; about a fifth of its hits are not listed in these tables; also: % is scaled to controls: 0 for no effect and ±100 for the full control effect; luciferase read-out
2A StopGo: lowers the luciferase signal of an FMDV 2A StopGo reporter; hit rate 1.2% among 410,000; Potency, µM (top dose mostly 57.9 µM), inactives show at the highest dose signal change, negative = less light; human cells with a luciferase reporter of 2A StopGo recoding; control for the full effect not named in the record; active = well fitted falling curve with a large enough effect; inconclusive = small, poorly fitted or top-dose-only effect; inactive = no such curve, though single readings can be large or run the other way; tested in HEK293T cells; also: % is scaled to controls: 0 for no effect and ±100 for the full control effect; nearly all actives have a fitted effect of over 45% in size; luciferase light after 4 h
SARS PLpro yeast: SARS-CoV PLP inhibition in yeast; S. cerevisiae expressing SARS-CoV PLpro, growth rescue; control for the full effect not named in the record; Potency, µM (titrated, usually from 32.9 µM), inactives show at the highest dose activity, positive = growth rescue; hit rate 0.19% among 330,000; also: 0% is about no effect; nearly all actives have a fitted effect of over 55% in size; growth read by luminescence after 48 h
Lassa entry inh: inhibitors of Lassa virus binding or cell entry | Lassa virus pseudotype entry inhibition, cell reporter; control for the full effect not named in the record | Potency, µM (top dose mostly 37.9 µM), without a hit: at the top dose activity change, negative = inhibition, actives largely listed as inhibitors | hit rate 1.2% among 300,000; active means well fitted inhibition curve with a large enough effect; inconclusive means small, poorly fitted or top-dose-only effect, or effect the other way; inactive means flat fitted curve, though single readings scatter; tested in HEK293 cells; also: % is scaled to controls: 0 for no effect and ±100 for the full control effect; nearly all actives have a fitted effect of over 50% in size; luciferase read-out
Active calls of the source: *; ? = inconclusive; · = no result given; & = joins results of further samples; [ ] = remark or other dose. Unless noted, calls follow the shape of the dose curve; as a rule, active means well fitted rising curve with a large enough effect; inconclusive means small, poorly fitted or top-dose-only effect; inactive means no such curve, though single readings can be large or run the other way. Potency is read from the fitted curve at half-maximal effect.

| compound | Cruzain inh Det | Cruzain noTriton | RE007 growth inh | NS1 function inh | MARV entry inh | 2A StopGo | SARS PLpro yeast | Lassa entry inh |
| --- | --- | --- | --- | --- | --- | --- | --- | --- |
| CCn1nc(C)c(CNC(=O)CC2C(=O)NCCN2CC(C)C)c1C (stereo unspecified) | · | · | -8% | 8% | 15%[46.1 µM] | -6% | 0% | -1% |
| COc1cccc(NC(=O)C2CCCN(S(=O)(=O)c3ccc(-n4cnnn4)cc3)C2)c1 (stereo unspecified) | -0.4% | 4% | 17% | -4% | · | 0% | 0% | -9% |
| O=C(COc1ncnc2ccccc12)NC(=O)NCc1ccccc1 | 4.8% | -6% | -3% | 1% | 3%&3% | 13% | 1% | ? |
| CCCn1c(/C=N/Nc2nc3ccccc3[nH]2)nc2ccccc21 | -6.5% | 8% | 4% | -42% | ? | ? | -50% | 13µM* |
| COc1ccc(C2c3sc(=O)[nH]c3SC3C4CCC(C4)C23)cc1OC (stereo unspecified) | -11% | -3% | 0% | 20% | ? | ? | -36% | -32% |
| COc1ccc(-n2c(SC)nc3sc4c(c3c2=O)CCN(C)C4)cc1 | · | · | -9% | 0% | -10%[46.1 µM] | -19% | 2% | 0%[46.1 µM] |
| Cc1cccc2nc(CNc3ccc(F)cc3)cn12 | 4.7% | 0% | -22% | 2% | ? | -7% | -2% | 29% |
| Clc1ccc2c(NCc3ccccc3)ccnc2c1 | · | · | -16% | -8% | ? | ? | -19% | ? |
| CC1(C)NC(=O)N(CC(O)COC2CCCCC2)C1=O (stereo unspecified) | 6.2% | 3% | 28% | -4% | -5% | 7% | 1% | 8% |
| CC(=O)N/C(=C/c1ccc2c(c1)OCO2)C(=O)NCCO | -4.9% | 2% | 5% | 27% | ? | -8% | 11% | -6% |
| O=C(CCCN1C(=O)c2cccc3cccc(c23)C1=O)N1CCc2ccccc2C1 | -13% | 2% | -28% | -50% | -4% | -11% | -3% | -14% |
| C#CCSc1n[nH]c(=O)n1-c1cccc(C(F)(F)F)c1 | · | · | 1% | -2% | ? | 18% | 0% | 3%[46.1 µM] |
| CCc1ccc(NC(=O)CSc2nc3n[nH]c(C)c3c(=N)n2-c2ccc(C)cc2)cc1 | -1.1% | -8% | · | · | · | -6% | · | -3%[46.1 µM] |
| CCOC(=O)CCCN1CC(O)=C(c2nc3ccccc3s2)C1=N | · | · | 15% | -3% | ? | 29% | 0% | -14%[46.1 µM] |
| CCOc1cc(C(=S)N2CCOCC2)ccc1OC(=O)c1ccc(C)cc1 | · | · | 14% | -7% | · | ? | -3% | · |
| CC(C)CN(C(=O)COC(=O)COc1ccc2ccccc2c1)c1c(N)n(Cc2ccccc2)c(=O)[nH]c1=O | · | · | 16% | · | -4% | -26% | 0% | ? |
| COc1ccnc(CS(=O)c2nc3cc(C(O)(F)F)ccc3[nH]2)c1OC (stereo unspecified) | · | · | -4% | 2% | 0% | 5% | -5% | 11% |
| CN(CCC#N)c1ncnc2scc(-c3ccccc3)c12 | -3.7% | -4% | 26% | ? | -7% | ? | -6% | 1% |
| CCOc1cccc2sc(N(CCCN(C)C)C(=O)c3ccc(S(=O)(=O)N(C)Cc4ccccc4)cc3)nc12 | · | · | 2% | -17% | ? | ? | -1% | ? |
| CC(=O)/C(N=Nc1ccc2c(c1)OCO2)=C(\C)O | -4.0% | -2% | -12% | 16% | ? | 37%[activator] | -2% | -3% |
| Cc1ccc(C)c(-n2nnc(-c3nc(-c4ccccc4C)no3)c2C)c1 | 2.2% | -1% | · | · | · | 35%[activator] | · | -13%[46.1 µM] |
| COC(=O)c1ccccc1S(=O)(=O)NNC(=O)C1COc2ccccc2O1 (stereo unspecified) | · | · | -11% | · | 14%[46.1 µM] | -3% | 3% | 23% |
| Fc1ccccc1OCCSc1ncnc2nc[nH]c12 | · | · | 1% | -3% | · | 38%[activator] | -1% | · |
| CCOC(=O)c1nn(C)c(=S)n(C)c1=O | · | · | -12% | · | 16%[46.1 µM] | 19% | · | 3%[46.1 µM] |
| O=C(Nc1ccn([C@H]2CC[C@@H](CO)O2)c(=O)n1)c1ccccc1 | · | · | 1% | -4% | -1%[46.1 µM] | 12% | 1% | ? |
| Cc1sc2ncn(CC(=O)N(CC(=O)NC3CCCC3)Cc3cccs3)c(=O)c2c1C | 1.1% | ? | 1% | 0% | -3%&-37% | 29% | -4% | 22% |
| COC(=O)COc1ccc(S(=O)(=O)Nc2ccc3c(c2)OCCO3)cc1Cl | -5.5% | -2% | 0% | -34% | 2% | -7% | -2% | -1% |
| O=C1CCCN1c1ccc(S(=O)(=O)N2CCCCC2)cc1 | · | · | 8% | 7% | -2%[46.1 µM] | -14% | -1% | 14%[46.1 µM] |
| Cc1ccc(S(=O)(=O)/N=C(\CSC(N)=O)Nc2ccccc2)cc1 | 2.1% | 0% | 13% | 8% | -9% | 1% | -2% | 4% |
| COc1ccc(-n2cc(CNC3CCN(C)CC3)c(-c3cccc(F)c3)n2)cc1 | · | · | 14% | 2% | 3.2µM* | 6% | 0% | 11µM* |
| Cc1ccc(C)c(NC(=S)N2CCN(c3cccc(C(F)(F)F)c3)CC2)c1 | -6.0% | -7% | -13% | 0% | -25% | 0% | 0% | 0% |
| CC(=O)N(C)c1ccc(NC(=S)Nc2cccc3ccccc23)cc1 | -1.2% | -8% | -5% | 15% | ? | -10% | 9% | -1% |
| Cc1ccc2c(C(=O)CN3CCN(C4CCCCC4)CC3)c(C)[nH]c2c1 | -0.2% | 1% | 5% | 3% | ? | -11% | -1% | 17% |
| COC(=O)C(CC(C)C)NC(=O)c1cc(OC)c(OC)c(OC)c1 (stereo unspecified) | -2.4% | 2% | -12% | -1% | -11% | -6% | -10% | -17% |
| Cc1ccc(C(C(=O)NC(C)(C)C)N(CC2CCCO2)C(=O)CCC(=O)Nc2ccccn2)cc1 (stereo unspecified) | · | · | 2% | -6% | -24%[46.1 µM] | 5% | 2% | -12% |
| CCOC(=O)N1CCN(C(=O)c2cc3sccc3n2C)CC1 | -2.7% | 5% | 7% | 3% | -4% | -12% | 8% | -19% |
| O=C(/C=C/c1c(Cl)nc2ccccn12)N1CCN(c2ccccc2F)CC1 | · | · | -13% | 8% | ? | ? | -1% | ? |
| CCCC(=O)Nc1ccc(-c2nc3ncccc3o2)cc1 | · | · | 26% | -21% | · | 53%[activator] | -6% | · |
| Cc1cccc(CN2CCC(C(=O)Nc3cccc(-c4cccc(F)c4)c3)CC2)n1 | · | · | -4% | -1% | · | -26% | 0% | · |
| COc1ccc(Cc2nnc(NC(=O)CSc3ccccc3)s2)cc1 | -7.1% | -2% | 0% | 2% | 2% | · | 4% | ? |
| CN1CCN(Cc2cc3c(cc2[N+](=O)[O-])OCO3)CC1 | · | · | -1% | 15% | 2%[46.1 µM] | -7% | 3% | 27%[46.1 µM] |
| O=C(CN=C1NC(=O)C(c2ccccc2)(c2ccccc2)N1)NCc1ccc(F)cc1 | 4.3% | 3% | -4% | -2% | 14% | -1% | 3% | -2% |
| Cc1c(C(=O)N/N=C/c2c(O)ccc3ccccc23)nnn1-c1nonc1N | · | · | 15% | 16% | ? | -11% | 1% | ? |
| O=C(OCc1ccc(Br)cc1)c1cccnc1Cl | · | · | 20% | -8% | 3%[46.1 µM] | 9% | -3% | 13% |
| CCc1ccc(N2C(=O)CC(N3CCC(C(=O)OC)CC3)C2=O)cc1 (stereo unspecified) | 1.8% | 14% | 10µM* | -34% | 11% | -15% | -25% | 4% |

Whole records, looked up by structure:
Listed for Cc1ccc2c(C(=O)CN3CCN(C4CCCCC4)CC3)c(C)[nH]c2c1 = Cruzain inh Det: -0.2%; Cruzain noTriton: 1%; RE007 growth inh: 5%; NS1 function inh: 3%; MARV entry inh: ?; 2A StopGo: -11%; SARS PLpro yeast: -1%; Lassa entry inh: 17%
Listed for O=C(OCc1ccc(Br)cc1)c1cccnc1Cl = Cruzain inh Det: ·; Cruzain noTriton: ·; RE007 growth inh: 20%; NS1 function inh: -8%; MARV entry inh: 3%[46.1 µM]; 2A StopGo: 9%; SARS PLpro yeast: -3%; Lassa entry inh: 13%

Other results follow:
| compound | Cruzain inh Det | Cruzain noTriton | RE007 growth inh | NS1 function inh | MARV entry inh | 2A StopGo | SARS PLpro yeast | Lassa entry inh |
| --- | --- | --- | --- | --- | --- | --- | --- | --- |
| CCCCCOc1ccc(/C=C/C(=O)Nc2sc3c(c2C(=O)OCC)CCC3)cc1OC | -1.6% | 2% | · | · | · | -4% | · | -1%[46.1 µM] |
| CC1CCN(C(=O)COC(=O)c2n[nH]c3ccccc23)CC1 | -4.7% | 8% | 0% | -10% | ? | 19% | 0% | 5% |
| Cc1cc(Cl)ccc1NC(=O)Cn1nnc2sc(-c3ccccc3)cc2c1=O | -3.0% | 5% | · | · | 23%[46.1 µM] | -15% | · | -1%[46.1 µM] |
| COc1ccccc1NC(=O)CSC1=Nc2ccccc2C2=NC(Cc3ccccc3)C(=O)N12 (stereo unspecified) | -4.2% | -15% | · | · | · | 0% | · | ? |
| CC(C)Oc1ccc(CNC(=O)CCCn2c(=O)c3cccn3c3ccccc32)cc1 | -1.8% | -2% | · | · | · | -18% | · | 19%[46.1 µM] |
| CC(C)(C)C(=O)[C@@H]1[C@@H]2C(=O)N(Cc3ccccc3)C(=O)[C@@H]2[C@H]2c3ccccc3C=CN12 | -3.1% | ? | · | 26% | 1% | · | 0% | · |
| Cc1ccccc1-c1nc(CS(=O)(=O)CC(=O)NC(C)c2ccccc2)c(C)o1 (stereo unspecified) | 0.3% | 26% | -12% | -21% | -21%&-8%[46.1 µM] | -19%&-28% | -8% | 2%&8%[46.1 µM] |
| O=C(COc1ccc2c3c(c(=O)oc2c1)CCC3)NCCCN1CCCC1=O | · | · | 0% | -2% | · | -1% | -2% | · |
| CCOC(=O)CCSc1nc(C(C)(C)C)cc(C(F)(F)F)c1C#N | -13% | -15% | 24% | 2% | 52% | -17% | 2% | -26% |

Assay outcomes: PubChem, National Center for Advancing Translational Sciences (NCATS)

Compounds were not picked by outcome, and some 4.7% of all compounds hit somewhere here.
